Screening data deposited in PubChem by Johns Hopkins Ion Channel Center.
KCNQ2 block: KCNQ2 channel blockers in CHO-K1 cells – cell-based, FluxOR thallium flux, B-score, primary screen (AID 2156); 1.1% of 310,000 active; O88943; 20 min; stronger effect = lower value; only compounds with negative scores are shown here; some inactives read as strong as hits; B-score at 10 µM;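 active means fluorescence ratio B-score at most minus 3 library SDs, with starting brightness B-score within 2 library SDs, cut at about -5.5 in these data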
Target sequence (O88943 whole entry, looked up): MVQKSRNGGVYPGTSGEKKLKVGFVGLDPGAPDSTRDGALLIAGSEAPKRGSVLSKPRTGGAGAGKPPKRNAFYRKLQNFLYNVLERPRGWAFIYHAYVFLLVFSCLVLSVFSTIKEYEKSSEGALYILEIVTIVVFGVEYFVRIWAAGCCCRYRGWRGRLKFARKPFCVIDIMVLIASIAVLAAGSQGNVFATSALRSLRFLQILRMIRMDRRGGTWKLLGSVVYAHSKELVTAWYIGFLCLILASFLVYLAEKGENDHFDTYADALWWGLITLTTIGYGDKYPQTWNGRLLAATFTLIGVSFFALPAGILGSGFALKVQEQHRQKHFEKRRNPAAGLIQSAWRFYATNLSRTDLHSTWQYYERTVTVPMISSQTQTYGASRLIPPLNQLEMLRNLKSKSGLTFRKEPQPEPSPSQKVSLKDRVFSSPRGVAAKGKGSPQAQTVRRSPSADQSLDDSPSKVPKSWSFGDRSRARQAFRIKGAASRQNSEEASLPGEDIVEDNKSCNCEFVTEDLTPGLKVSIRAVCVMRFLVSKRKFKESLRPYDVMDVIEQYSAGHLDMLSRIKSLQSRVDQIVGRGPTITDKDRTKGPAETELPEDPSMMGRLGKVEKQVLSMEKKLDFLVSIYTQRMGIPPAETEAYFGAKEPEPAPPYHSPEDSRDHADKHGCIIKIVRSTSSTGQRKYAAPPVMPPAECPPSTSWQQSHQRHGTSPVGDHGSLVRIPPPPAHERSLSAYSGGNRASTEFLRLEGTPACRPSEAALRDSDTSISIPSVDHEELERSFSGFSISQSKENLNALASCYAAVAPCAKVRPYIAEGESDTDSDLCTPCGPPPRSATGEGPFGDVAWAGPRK
KCNQ2 block baseline: second read-out of KCNQ2 block, no call of its own (marks repeat the call); B-score; measured here: initial fluorescence intensity artifact check;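 brightness before thallium and not channel activity; 0 = typical well and far values either way flag optical interference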
An asterisk follows results filed as active; i = inactive. The list is partial; the hit share may differ from the screen's.

nr | structure | KCNQ2 block | KCNQ2 block baseline
1 | Cc1nnc(SCC(=O)Nc2ccc(S(=O)(=O)N3CCCCC3)cc2)s1 | i | 0.09
2 | CC(NC(=O)c1cccnc1)C(=O)N1CCCCC1 (configuration not stated) | i | -1.3
3 | Cc1ccc(-c2ccc(=O)n(CC(=O)Nc3ccc4c(c3)OCCO4)n2)cc1 | i | -1.3
4 | Fc1ccc(-n2cnnn2)c(F)c1 | i | 0.73
5 | Cc1ccc(S(=O)(=O)N2CCN(CCC#N)CC2)cc1 | i | -0.2
6 | COc1cccc(CC2(CO)CCCN(Cc3ccccc3-c3ccco3)C2)c1 (configuration not stated) | i | -0.31
7 | CCN(c1ccc(OC)cc1)S(=O)(=O)c1nnc(NC(=O)COc2ccc(C)cc2)s1 | i | -1.1
8 | CCOc1ccc(-n2nnnc2SCC(=O)N2CCOCC2)cc1 | i | -1.4
9 | Cc1ccc(C(=O)/C=C/c2ccc3c(c2)OCCO3)c(O)c1 | i | 0.02
10 | c1ccc(Cn2c(-c3cncs3)nc3ccccc32)cc1 | i | -0.01
11 | CCN(CC)C(=O)N1CCC(NC(=O)Cc2ccccc2)CC1 | i | -1.2
12 | COc1ccc(-c2cc(=O)oc(-c3cccc(C)c3)n2)cc1 | i | -1.1
13 | Cc1ccc(CCNC(=O)CCNS(=O)(=O)c2ccc3c(c2)oc(=O)n3C)cc1 | i | 0.27
14 | O=C1NC2(CCCCC2)C(=O)N1/N=C/c1ccccc1Br | i | -1.3
15 | CCOCCOC(=O)c1cccc2c1-c1ccccc1C2=O | i | -0.13
16 | Oc1ccc(NCc2cccc(OCc3ccccc3)c2)cc1 | i | -1.2
17 | COc1ccc2cc(CCNS(=O)(=O)c3c(C)cc(C)cc3C)c(=O)[nH]c2c1 | i | -0.49
18 | CC(CCc1ccccc1)NC(=O)CCC(=O)N1CCC(C(N)=O)CC1 (configuration not stated) | i | -0.19
19 | O=C(NCCO)C(=O)Nc1cc2c3c(c1)CCC(=O)N3CCC2 | i | -0.63
20 | CCOC(=O)c1cnn(-c2ccccc2)c1-n1cccc1C(=O)C(=O)Nc1ccccc1C(F)(F)F | -7* | -0.02*
21 | COCCNC(=O)/C(C#N)=C/c1cccc(NC(=O)c2ccccc2Cl)c1 | i | 0.47
22 | CC[n+]1c(/C=C/c2ccc(OC)c(OC)c2)ccc2ccccc21 | i | 1.7
23 | O=C(CSc1nc2ccccc2o1)NC(=O)NCc1ccco1 | i | -0.04
24 | O=C(COC(=O)c1cc(S(=O)(=O)N2CCCCC2)ccc1N1CCOCC1)c1ccc(Cl)cc1 | i | 1.1

Some of the entries so far, as labelled records:
14) O=C1NC2(CCCCC2)C(=O)N1/N=C/c1ccccc1Br
  KCNQ2 block: i; KCNQ2 block baseline: -1.3
15) CCOCCOC(=O)c1cccc2c1-c1ccccc1C2=O
  KCNQ2 block: i; KCNQ2 block baseline: -0.13
16) Oc1ccc(NCc2cccc(OCc3ccccc3)c2)cc1
  KCNQ2 block: i; KCNQ2 block baseline: -1.2
17) COc1ccc2cc(CCNS(=O)(=O)c3c(C)cc(C)cc3C)c(=O)[nH]c2c1
  KCNQ2 block: i; KCNQ2 block baseline: -0.49

Additional records.
nr | structure | KCNQ2 block | KCNQ2 block baseline
25 | COc1ccc(OC)c(C(=O)COC(=O)c2ccccc2O)c1 | i | -1.5
26 | COCCCNC(=O)C(=O)Nc1cc2c3c(c1)CCN3C(=O)CC2 | i | 0.95
27 | O=C(C[n+]1cc(-c2ccc(Cl)c(Cl)c2)n2c1CCC2)N1c2ccccc2Sc2ccccc21 | i | -2
28 | O=C(O)CCc1ccc(-c2cccs2)o1 | i | 2.2
29 | OCC1(CCOc2ccccc2)CCN(Cc2ccc(OC(F)F)cc2)CC1 | i | 0.99
30 | CN(C)S(=O)(=O)c1cc(NC(=O)CN2CCN(c3ccc(O)cc3)CC2)ccc1Cl | i | 0.01
31 | CCC(C)NC(=O)NCc1ccccc1F (configuration not stated) | i | -2.1
32 | c1ccc(CSc2nnnn2-c2cccc3ccccc23)nc1 | i | 2.9
33 | O=C(CCC(=O)Nc1ccccc1Cl)NNC(=O)c1ccccc1[N+](=O)[O-] | i | 0.01
34 | c1ccc(-n2cc(CN3CCCC3)c(-c3ccc4c(c3)OCO4)n2)cc1 | i | 0.64
35 | CC(=N/O)/C(C)=N\NC(=O)c1ccccn1 | i | 13
36 | CCOC(=O)C1(Cc2ccccc2C(F)(F)F)CCN(C2CCCC2)CC1 | i | 0.64
37 | O=C(N/N=C/c1ccccc1O)C(=O)Nc1ccccn1 | i | 0.75
38 | COc1cccc(N2C(=O)C(c3ccccc3)=C(c3nc4ccccc4s3)C2NC(C)=O)c1 (configuration not stated) | i | 0.74
39 | CCCOc1ccc2c(C)c(CC(=O)OC)c(=O)oc2c1 | i | 0.66
40 | O=C(CSc1nc(C(F)(F)F)cc(=O)[nH]1)Nc1nccs1 | i | -1.6
41 | O=C(CCCc1nc(-c2ccccc2)no1)N1CCOCC1 | i | -0.5
42 | Cc1ccccc1-c1n[nH]c(=S)n1/N=C/c1ccc(-c2ccccc2Br)o1 | i | 1.9
43 | CN1c2ccccc2C(C)(C)C12CCCC(=O)N2 (configuration not stated) | i | 2.5
44 | COc1ccc(C(C(=O)NC2CCCCC2)N(Cc2ccco2)C(=O)CNC(=O)c2ccco2)cc1 (configuration not stated) | i | -0.41
45 | O=C1COc2ccc(C(=O)c3ccccc3C(=O)NCc3ccccc3)cc2N1 | i | 0.64
46 | O=C(CSc1nc(-c2ccc(F)cc2)cc(C(F)(F)F)n1)NCCN1CCOCC1 | i | 0.59
47 | N=C1/C(=C/c2cccn2Cc2ccc(Cl)cc2)C(=O)N=C2SC=CN12 | i | 2.6
48 | CCOc1ccc(C(=O)NC(C(=O)NCc2ccccc2OC)C(C)C)cc1 (configuration not stated) | i | 1.1
49 | CCOc1ccc(/C=C2\NC(=S)NC2=O)cc1 | i | 0.05
50 | CCN1N=C(c2cc(Cl)sc2Cl)CSC1=O | i | -1.4
51 | Cn1nccc1NC(=O)c1nccnc1C(=O)O | i | -0.09
52 | CC(C)(C)OC(=O)CNC(=O)c1nc[nH]c1C(=O)NCc1ccccc1 | i | -0.01
53 | Cc1nc2ccc(NC(=O)Cc3cccc(F)c3)cc2s1 | i | -0.83
54 | CCN(CC)CCSc1nnc2c3ccccc3n(CCc3ccccc3)c2n1 | i | 1.4
55 | O=C(CNC(=O)c1cccs1)NCC(=O)OCc1ccccc1Br | i | -1.2
56 | CCOC(=O)CC(=O)CSc1nc(-c2ccccc2)cc(-c2ccccc2)c1C#N | i | 0.24
57 | COc1ccccc1N(CC(=O)NCCSCc1ccc(C)cc1)S(=O)(=O)c1ccccc1 | i | 3.9
58 | CCn1c(SC(C)C)nnc1-c1cc(-c2ccccc2)sc1N | i | 1.2
59 | CC(=O)Nc1ccc(C(=O)OCC(=O)N(Cc2ccccc2)C(C)(C)C)cc1 | i | -0.48
60 | O=C(Nc1nc(NC(=O)c2ccco2)n(-c2ccccc2)n1)c1ccccc1 | i | 1.1
61 | COCCCNC(=O)c1ccc(N(C)S(=O)(=O)c2ccc(OC)cc2)cc1 | i | -0.04
62 | O=C(c1ccc(NS(=O)(=O)c2ccccc2)cc1)N1CCCC1 | i | 0.02
63 | Cc1cc2c(c(N)n1)c(=O)oc1ccccc12 | i | 0.44
64 | Nc1nc(SCC(=O)NCCc2ccccc2)[nH]c(=O)c1-c1ccccc1 | i | 0.64
65 | COc1ccc(S(=O)(=O)N2CCOC23CCN(C(=O)c2ccccc2Br)CC3)cc1 | i | 0.06
66 | O=C1OCc2cc(-n3cccc3)ccc21 | i | -0.01
67 | COC(=O)C1=C(C(=O)OC)SC(=C2C(=S)C(C)(C)N(C(=O)CC(C)C)c3ccccc32)S1 | i | 0.29
68 | COc1ccc(S(=O)(=O)N(CCC#N)Cc2ccco2)cc1OC | i | 0.94
69 | COc1ccc(S(=O)(=O)NC(C)C(=O)NCc2ccncc2)cc1Cl (configuration not stated) | i | -1.5
70 | NCC12CC3CC(C1)CC(c1ccc(Br)cc1)(C3)C2 | i | 0.51
71 | CCOc1cccc(N(C(=O)CCC(=O)Nc2cc(C)on2)C(C(=O)NC(C)(C)C)c2ccc(OC)cc2)c1 (configuration not stated) | i | 0.09
72 | COC(=O)c1cc(C(=O)OC)cc(N2C(=O)CN=C2Nc2nc(C)cc(C)n2)c1 | i | 0.01

Random excerpt: 2 compounds from above
nr | structure | KCNQ2 block | KCNQ2 block baseline
69 | COc1ccc(S(=O)(=O)NC(C)C(=O)NCc2ccncc2)cc1Cl (configuration not stated) | i | -1.5
63 | Cc1cc2c(c(N)n1)c(=O)oc1ccccc12 | i | 0.44

New compounds follow
nr | structure | KCNQ2 block | KCNQ2 block baseline
73 | O=C1C2C3C=CC(CO)(O3)C2C(=O)N1c1ccc(-c2ccccc2)cc1 (configuration not stated) | i | -0.37
74 | Cc1cccc(OCC(=O)OCC(=O)c2c(N)n(C)c(=O)n(C)c2=O)c1C | i | 0.26
75 | O=C(COC(=O)c1n[nH]c2ccccc12)Nc1ccc(Cl)cc1[N+](=O)[O-] | i | -0.52
76 | Cc1c(NC(=O)CSCc2ccc(Br)cc2)c(=O)n(-c2ccccc2)n1C | i | -1.3
77 | Cc1ccc(-c2nnc(N3CCN(C(=O)COc4cccc(C)c4)CC3)c3ccccc23)cc1 | i | 1.8
78 | CC(=O)c1cnc2sccn2c1=O | i | -0.59
79 | CCOC(=O)c1cnc(Nc2nc3ccccc3o2)nc1CSc1ncccn1 | i | 1.5
80 | CC(C)c1ccc(/C=C2\SC(=O)N(CC(=O)NCCCn3ccnc3)C2=O)cc1 | i | 4.8
81 | Cc1c(CC(=O)O)c(=O)oc2cc3occ(-c4ccccc4)c3cc12 | i | -1.3
82 | O=C(c1ccc2c(c1)OCO2)N1CCC2(CC1)Oc1ccc(F)cc1C(=O)C21CC(c2ccc(Cl)cc2)=NO1 (configuration not stated) | i | -0.01
83 | CSc1nc2c(c(=O)[nH]1)C(c1ccncc1)C(C(=O)OC(C)C)=C(C)N2 (configuration not stated) | i | 0.08
84 | COCC(C)NC(=O)CCSc1nc(-c2ccc(OC)cc2)cc(C(F)(F)F)n1 (configuration not stated) | i | 0.38
85 | O=C1CCN(S(=O)(=O)c2ccc(Cl)cc2)CCN1 | i | 0.14
86 | COC(=O)c1cn(CCOc2ccccc2F)c2ccccc12 | i | 0.12
87 | O=C1CCC([N+](=O)[O-])C(c2cccc3ccccc23)N1 (configuration not stated) | i | 0.74
88 | Cn1cnnc1SCC(=O)NCc1cccc(C(F)(F)F)c1 | i | -0.35
89 | COc1ccc(N/C=C2\CCOC2=O)cc1 | i | -0.41
90 | CCOC(=O)C(=CNc1ccc(NC2=NCC(C)(C)S2)cc1)C(=O)OCC | i | -0.36
91 | Cc1ccc(CNS(=O)(=O)c2c(C)n(C)c(=O)n(C)c2=O)cc1 | i | -1.1
92 | O=C(NCc1ccc2c(c1)OCO2)C1CCC(CNS(=O)(=O)c2ccccc2)CC1 (configuration not stated) | i | -2.5
93 | CCOC(=O)CC(NC(=O)c1ccco1)c1ccc(OC)cc1 (configuration not stated) | i | 1.1
94 | COC(=O)c1c(NC(=O)c2c(OC)cccc2OC)sc2c1C(C(=O)OC)CC2 (configuration not stated) | i | -1.1
95 | O=C(NC1CCCCCC1)C1CCCN(S(=O)(=O)c2cnc[nH]2)C1 (configuration not stated) | i | 1.4
96 | CC1CCN(c2ccc3nnc(CCC(=O)Nc4cc(F)ccc4F)n3n2)CC1 | i | -0.33
97 | COc1cc(/C=C2\C(=N)N3N=C(S(=O)(=O)CC(C)C)SC3=NC2=O)ccc1OC(=O)c1ccco1 | i | -0.27
98 | CCCCc1c(O)nc(SCC(=O)N2CCCCC2)[nH]c1=O | i | 2.1
99 | Cc1cccc(C(=O)Oc2ccc(/C=N/NC(=O)c3cc(O)cc(O)c3)cc2)c1 | i | 0.91
100 | COCCN1C(=O)C(O)=C(C(=O)c2ccco2)C1c1cccc(Oc2ccccc2)c1 (configuration not stated) | i | -0.6
101 | COc1ccc(NS(=O)(=O)c2c(C(=O)N3CCCCCC3)c(C)n(C)c2C)cc1 | i | 3.6
102 | C(=C\c1nc(N2CCCC2)c2ccccc2n1)/c1ccccc1 | i | 1.4
103 | O=C(COC(=O)c1sc2ccccc2c1Cl)Nc1ncc(Cl)cc1Cl | i | 1.5
104 | N#Cc1cccc(Cn2cc(C(F)(F)F)ccc2=O)c1 | i | -0.84
105 | COc1cccc(OC)c1C(=O)NC(=O)NNc1cc(C(F)(F)F)cc(C)n1 | i | -1.5
106 | Cc1c(C(c2ccc([N+](=O)[O-])cc2)c2c(C)n(C)n(-c3ccccc3)c2=O)c(=O)n(-c2ccccc2)n1C | i | -0.49
107 | COc1ccc2cc(-c3cc(C(=O)OCC(=O)NC4CCS(=O)(=O)C4)c4ccccc4n3)ccc2c1 (configuration not stated) | i | 2.2
108 | Cc1cccc(N2CCN(C(=O)Cc3ccc(-n4c(=O)[nH]c5ccsc5c4=O)cc3)CC2)c1C | i | -1.5
109 | CN(Cc1ccccc1F)C(=O)c1ccc2c(=O)n3c(nc2c1)CCC3 | i | 1.7
110 | CCn1c(CCCOc2ccc(Cl)cc2Cl)nnc1SCC(=O)Nc1cc(F)ccc1C | i | 0.35
111 | CCCCN(C(=O)CSc1nnnn1C)c1c(N)n(Cc2ccccc2)c(=O)[nH]c1=O | i | -0.15
112 | CC1(C(=O)OCc2cc(=O)n3cc(Br)ccc3n2)CC1(Cl)Cl (configuration not stated) | i | 1.8
113 | O=C(O)c1nc(-c2ccccc2)n(-c2ccc(Cl)cc2)n1 | i | 0.36
114 | Cc1ccc(C)c(NC(=S)N2CCC(NC(=O)c3ccccc3)CC2)c1 | i | 1.8
115 | O=C(CCCn1c(=O)[nH]c2cc(Cl)ccc2c1=O)NCC1CCCO1 (configuration not stated) | i | -0.05
116 | Cc1cccc(C(=O)N2CCN=C2SCc2ccc([N+](=O)[O-])cc2)c1 | i | -0.35
117 | O=C(O)CC(NC(=O)Cc1ccc([N+](=O)[O-])cc1)c1ccc2c(c1)OCO2 (configuration not stated) | i | 1.7
118 | CNC(=O)c1cc(C(=O)c2ccc(Cl)cc2)c(Br)[nH]1 | i | -1.3
119 | CC(OC(=O)Cn1cnc2ccccc2c1=O)C(=O)NCc1ccccc1 (configuration not stated) | i | 0.61
